ALR inh: blocks human ALR sulfhydryl oxidase activity. P55789. 290,000 tested, 3.8% active. purified ALR, DTT oxidation, H2O2 HRP-luminol luminescence. inhibition, % (no concentration beside the values);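 active means mean and each replicate at 75% or more; inconclusive means only one of the two met; inactive means neither met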;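 further: stock transfer was 7.5 nL into about 7.5 µL; 0% = neutral wells and 100% = wells with inactivated enzyme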
Target sequence (P55789 whole entry, looked up): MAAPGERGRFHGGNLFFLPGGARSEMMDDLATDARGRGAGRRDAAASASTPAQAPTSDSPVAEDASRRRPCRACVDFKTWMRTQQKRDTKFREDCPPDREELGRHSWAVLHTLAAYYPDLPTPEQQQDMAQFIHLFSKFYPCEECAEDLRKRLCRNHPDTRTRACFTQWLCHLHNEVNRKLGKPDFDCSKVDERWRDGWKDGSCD
Ecoli rRNA inh: selective bacterial rRNA inhibition in E. coli; E. coli WT GFP vs humanized-ribosome RFP mutants, fluorescence, 24 h; stronger effect = lower value; DMSO median 0, no signal -100; GFP signal change (wild-type ribosome), % (test concentration not listed); 350,000 tested, 1.6% active;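 active means significant combined selectivity score with lowered wild-type GFP, culture density cut under 30%, mutant RFP and density less affected; inactive means any of these conditions unmet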; further: one replicate is shown; some compounds called inactive have numbers as strong as hits
E coli growth: inhibitors of Escherichia coli growth. AID 1053175. 330,000 tested, 0.21% active. OD600, 23 h; stronger effect = lower value. OD600 absorbance (no concentration beside the values);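 active means OD600 absorbance below the run mean of sample wells minus 3.6 SD, in any replicate, cut at about 0.56 in these data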;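 further: stock transfer was 300 nL into about 60 µL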
HNF4A DNA FP: change in binding of human HNF4 alpha to DNA; 360,000 tested, 0.3% active; activity change, % at 10 µM; HNF4a-FITC DNA binding, fluorescence polarization, 1 h; P41235; in the data active means activity change above about 30%, passing the limit was not always enough;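 further: controls were the assay level and a saturating level of protein; the project sought stronger binding though the title names inhibitors; some compounds called inactive have numbers as strong as hits; positive values seem to mean higher polarization but the record does not say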
Target sequence (P41235 whole entry, looked up): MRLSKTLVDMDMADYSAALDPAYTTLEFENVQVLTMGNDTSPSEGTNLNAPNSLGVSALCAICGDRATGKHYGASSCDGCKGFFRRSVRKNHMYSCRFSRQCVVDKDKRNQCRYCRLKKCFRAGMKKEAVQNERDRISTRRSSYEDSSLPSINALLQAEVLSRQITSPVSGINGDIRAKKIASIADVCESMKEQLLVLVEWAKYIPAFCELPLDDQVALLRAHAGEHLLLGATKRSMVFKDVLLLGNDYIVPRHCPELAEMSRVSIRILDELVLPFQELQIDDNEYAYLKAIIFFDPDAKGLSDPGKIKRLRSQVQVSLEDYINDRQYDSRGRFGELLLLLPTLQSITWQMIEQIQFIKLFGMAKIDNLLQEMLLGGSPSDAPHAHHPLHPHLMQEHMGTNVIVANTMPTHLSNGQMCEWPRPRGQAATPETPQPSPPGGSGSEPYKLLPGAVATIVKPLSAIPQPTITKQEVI
MLL AF4-AF9 inh: blocks AF4 peptide binding to human AF9; P42568; AlphaScreen, biotin-AF4 peptide binding to FLAG-AF9; inhibition, % at 10 µM; 350,000 tested, 0.47% active; AID 651704;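 active means every replicate reaching a set inhibition limit, whatever the replicate mean, cut at about 25% in these data; inconclusive means mean inhibition reaches that limit but some replicates miss it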;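 further: 0% = plate neutral control median and 100% = total signal loss; the record names both 10 and 1 µM as test concentration; the first replicate is given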
FGF22 binding: FGF22 (human) thermal shift binding; recombinant FGF22 thermal shift, SYPRO orange fluorescence; percent of sucrose octasulfate shift, DMSO zero; AID 651658; Q9HCT0; 340,000 tested, 1.5% active; calls only at 9.99 µM;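 active means melting point raised past a set limit in the mean and every replicate; inconclusive means no clear call; three in four hits are not shown here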
Target sequence (Q9HCT0 whole entry, looked up): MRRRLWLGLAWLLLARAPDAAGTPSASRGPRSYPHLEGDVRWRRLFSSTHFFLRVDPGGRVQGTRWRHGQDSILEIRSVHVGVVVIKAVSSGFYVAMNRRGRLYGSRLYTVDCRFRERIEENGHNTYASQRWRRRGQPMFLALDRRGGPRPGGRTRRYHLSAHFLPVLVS
Vif TR-FRET: HIV-1 Vif–A3G interaction blockers – biochemical, TR-FRET, GST-Vif 1-94, biotin-A3G peptide, dose response retest, primary screen (AID 1117319); one-dose inhibition, %; IC50 in µM for titrated hits; 260,000 tested, 0.57% active; TR-FRET GST-Vif / biotin-A3G peptide binding; higher % means a stronger effect; test concentration not given here; strong numbers were not always called active;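 active means above the screen mean plus three standard deviations and confirmed in dose response; inconclusive means results disagree or hit not tested in dose response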;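 further: Vif residues 1-94 fused to GST binding biotinylated APOBEC3G peptide 110-148; 0% = full assay without inhibitor and 100% = GST in place of GST-Vif; retest series ran down from 100 µM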
Ecoli rRNA inh OD600: recorded beside Ecoli rRNA inh, whose call it bears; OD600 change, %; measured here: OD600 growth;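 optical density of the mix in the first replicate; 0 = DMSO median and -100 = no signal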
Ecoli rRNA inh RFP: also measured in Ecoli rRNA inh; calls as there; RFP signal change, %; measured here: RFP humanized mutant strains;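 first replicate; 0 = DMSO median and -100 = no signal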
An asterisk follows results filed as active; i = inactive; ? = inconclusive; nt = no result given. Not all compounds are listed. The share of hits here may be higher or lower than overall.

Vif TR-FRET	Ecoli rRNA inh RFP	FGF22 binding	MLL AF4-AF9 inh	E coli growth	Ecoli rRNA inh	HNF4A DNA FP	ALR inh	Ecoli rRNA inh OD600	SMILES
21.9%	2.2	i	-2.8	nt	8.1	8.6	14.9	10.5	Nc1nnc(CC(=O)N/N=C/c2ccc(-c3ccccc3Cl)o2)s1
nt	-2.7	i	-0.6	0.631	0.3	-0.4	1.4	2.6	COc1ccc(CNCc2ccccc2C(F)(F)F)cc1
nt	-2.2	i	-4.4	nt	-45.9	nt	nt	-66.7	O=C(c1cccc(F)c1)N1CCCCN2[C@H](CO)[C@H](c3ccc(-c4ccccc4)cc3)[C@@H]2C1
-3.2%	-0.1	i	1.2	0.614	-0.4	0.6	-10.3	-5.4	Cc1ccccc1CN1CCN(CC(=O)NC(C)c2ccccc2)CC1 (centres undefined)
-11.9%	nt	nt	nt	0.673	nt	-1.0	-2.2	nt	Cn1cc(C(=O)N2CCN(c3ccccn3)CC2)c(=O)c2cc(S(=O)(=O)N3CCOCC3)ccc21
nt	2.0	i	-2.5	0.69	3.1	0.1	-6.8	-6.0	CCCOC(=O)c1ccc(NC(=O)CC(C)(C)C)cc1
nt	-1.6	i	-0.9	0.647	-3.5	5.8	-1.3	-4.0	CCOC(=O)C1=C(C)N(CCCC(=O)O)C(=O)NC1c1ccc2ccccc2c1 (centres undefined)
nt	0.9	i	-3.2	0.685	0.1	-0.8	-0.1	1.6	COc1cc(Cl)ccc1OCc1cc(C(=O)N(C)C2CCOC2)no1 (centres undefined)
2.0%	nt	nt	nt	0.65	nt	4.4	-4.5	nt	CCCn1c(-c2cccs2)nc2nc3ccccc3nc21
-4.0%	-17.4	i	1.0	0.666	-23.1	-0.3	nt	-69.8	CCC(CC)C(=O)Nc1nnc(S(=O)(=O)Nc2ccccc2C)s1
nt	-3.4	i	-2.8	nt	2.2	-1.9	nt	-2.4	O=C(CC1CCCC1)N1CCN(S(=O)(=O)c2c(F)cccc2F)CC1
nt	-0.1	i	0.8	0.694	9.0	0.6	nt	13.2	COc1cc(NC(=O)CSc2nc3ncnc(N)c3[nH]2)c(C(=O)O)cc1OC
nt	1.8	i	-4.4	nt	9.8	-4.5	nt	7.4	CC(C)C(=O)N1CCC1(C)C(=O)Nc1nc2ccccc2[nH]1 (centres undefined)
nt	2.0	i	-1.2	nt	-1.6	nt	nt	6.4	Cc1ccc(S(=O)(=O)N(C)C[C@H]2OCCCC[C@@H](C)Oc3ccc(NC(=O)Nc4ccc(F)cc4)cc3C(=O)N([C@@H](C)CO)C[C@@H]2C)cc1
nt	1.1	i	4.5	nt	-2.9	nt	nt	-3.9	C[C@@H]1CCCCO[C@@H](CN(C)C(=O)C2CCCCC2)[C@H](C)CN([C@H](C)CO)C(=O)c2cc(N(C)C)ccc2O1
-4.0%	nt	nt	nt	0.708	nt	-0.1	-1.0	nt	CCCS(=O)(=O)N1CCCC(C(=O)NCCN(CC)CC)C1 (centres undefined)
20.5%	nt	nt	nt	0.724	nt	2.7	43.8	nt	Cc1ccc(NC(=O)CSC2=C(C#N)C(c3ccco3)C3=C(CCCC3=O)N2)cc1 (centres undefined)
nt	-0.2	i	27.2*	0.664	0.8	-0.1	nt	4.3	CCOc1ccc(C(C(=O)NCC2CCCO2)N(C(=O)c2snc(C(N)=O)c2N)c2ccc3c(c2)OCCO3)cc1 (centres undefined)
nt	-3.3	i	-0.5	nt	11.9	-0.1	1.0	-1.6	CC/C(CC(=O)C(F)(F)F)=N\NC(=O)/C(C#N)=C/N(C)C
-2.9%	nt	nt	nt	0.793	nt	-0.4	-0.2	nt	O=C(CCN1C(=O)C2C3C=CC(C3)C2C1=O)NCC1CCCO1 (centres undefined)
-1.5%	-4.4	i	-0.9	0.74	11.7	-4.1	-4.2	8.9	O=C(NC1CCCc2ccccc21)C1CCN(c2c3c(nc4ncnn24)CCC3)CC1 (centres undefined)
-3.4%	nt	nt	nt	nt	nt	-0.3	-5.9	nt	COC(=O)N/N=C(\C)c1ccccc1OC(F)F
15.9%	-8.5	nt	nt	0.687	-34.1	1.4	7.7	-42.2	c1ccc(Sc2nc(N3CCCCC3)nc(N3CCCCC3)n2)nc1
nt	-0.2	i	-3.1	nt	9.1	0.7	-1.3	5.6	Cc1ccc(C(=O)NCCNC(=O)c2ccc(F)cc2)cn1
nt	3.0	i	0.0	0.721	0.4	-1.1	nt	0.9	COc1ccc(-n2nc(C(=O)N3CCC(C#N)CC3)c3c4ccccc4n(C)c3c2=O)cc1
nt	-0.1	i	-0.4	0.686	0.7	-1.5	-3.4	-0.9	O=C(CSc1nncn1-c1ccccc1)Nc1ccccc1F
-0.9%	-3.4	i	4.5	0.691	-5.5	-0.6	-2.3	-1.5	Cc1cccc(NC(=S)N(CCN2CCOCC2)Cc2ccccc2F)c1
-0.9%	0.7	nt	7.3	0.653	6.9	-0.7	-5.4	10.4	CCc1noc(C)c1C(=O)N(C)CC(=O)Nc1ccccc1Br
-5.3%	1.7	i	1.8	nt	-7.0	3.4	nt	-10.6	COc1ccc(CN2C(=O)C(CC(=O)NC(c3ccccc3)c3ccccc3)CC(C(=O)N(C(C)C)C(C)C)=C2C)cc1 (centres undefined)
nt	0.5	i	3.4	0.676	15.1	1.9	-6.9	18.4	Cc1ccc(S(=O)(=O)N2CCN(C)CC2)cc1
-1.0%	0.8	i	-1.6	0.644	-6.8	-2.8	nt	-3.9	CCc1ccc(OCCCC(=O)Nc2nccs2)cc1
?	nt	nt	nt	nt	nt	3.1	98.6*	nt	CC(C)N=c1scc(-c2ccco2)n1/N=C/c1ccc(O)c(O)c1
68.6%	nt	nt	nt	0.749	nt	-1.9	2.9	nt	CCc1ccc(CNCc2cccnc2)cc1
-4.1%	3.8	i	-0.9	0.673	-2.4	-3.3	-4.7	4.9	COC(=O)c1ccc(NC(=O)CN2C(=O)c3ccccc3S2(=O)=O)cc1
15.6%	3.6*	i	-56.6	0.675	-25.1*	-3.5	37.9	-7.5*	O=C(O)C/C(=C\c1ccc(N2CCOCC2)c([N+](=O)[O-])c1)c1nc2ccccc2s1
8.6%	nt	nt	nt	0.622	nt	-0.1	?	nt	CCN(c1ccc(NS(=O)(=O)c2cc(Cl)ccc2Cl)cc1)C(C)C
2.1%	nt	nt	nt	0.721	nt	1.9	99.2*	nt	CCc1c(O)nc(SCC(=O)Nc2ccccc2OC)[nH]c1=O
2.9%	nt	nt	nt	0.716	nt	0.4	-15.4	nt	CCc1ccc(-n2nc3ccc(NC(=O)c4ccc5c(c4)OCO5)cc3n2)cc1
3.0%	2.5	i	-0.8	0.669	17.4	5.8	-1.9	10.8	Cc1noc(C(=O)NCC2CCCO2)c1Cl (centres undefined)
nt	-1.6	i	-1.1	0.744	-2.4	-3.7	-4.3	7.9	CC(=O)Oc1ccc(-c2csc(Nc3ccc(Cl)cn3)n2)cc1
-3.6%	nt	i	-0.4	0.679	nt	6.3	-1.1	nt	FC(F)(F)c1cccnc1Oc1ccc(C2=NCCS2)cc1
2.3%	nt	nt	2.3	0.716	nt	3.2	4.6	nt	COc1ccc(C2NC(=O)c3ccccc3N2)cc1OC (centres undefined)
-75.3%	1.6	i	-1.4	0.681	12.5	3.7	3.2	3.8	O=C(Nc1nc2ccsc2c(=O)s1)c1ccc(F)cc1
nt	1.1	i	3.8	nt	5.2	2.1	-1.1	2.4	CCCCC/C=C/C1=CC(=O)C[C@H](c2ccc3c(c2)OCO3)C1
16.3%	-2.4	nt	nt	0.705	10.5	-0.1	-3.7	14.8	Cc1c(C)c2ccc(Oc3ccc([N+](=O)[O-])cc3C(F)(F)F)c(C)c2oc1=O
-7.3%	2.2	i	-5.5	0.679	7.7	-1.4	0.8	8.1	COc1ccc(C(=O)NCCCNC(=O)c2cccnc2)cc1Br
-1.9%	2.0	i	-2.4	0.678	-1.2	1.5	4.9	-2.7	COC(=O)CSc1ccsc1C(=O)O
?	nt	nt	nt	0.734	nt	-4.2	-11.2	nt	Cc1c(C(C)O)nnn1-c1nonc1N (centres undefined)
-10.2%	nt	nt	nt	0.73	nt	-1.8	-1.7	nt	COc1ccc(OC)c(S(=O)(=O)N2CCC(C(=O)Nc3cccc(C)c3C)CC2)c1
-1.0%	-2.6	i	0.6	0.69	0.9	-1.5	nt	4.2	Cc1ccc(NC(=O)/C(=C\c2ccccc2)NC(=O)c2ccco2)cc1
?	nt	nt	nt	0.663	nt	0.2	98.0*	nt	Cn1c(-c2cc(Br)ccc2O)n[nH]c1=S
nt	1.2	i	-8.1	nt	4.4	0.9	-11.4	5.6	Cc1nonc1CC(=O)NC1CCCc2c1cnn2-c1ccc(F)cc1F (centres undefined)
nt	-2.1	i	1.0	0.744	-10.1	-2.8	-7.2	-30.7	Cc1cc(C)cc(NS(=O)(=O)c2ccc3c(c2)C(C)(C)C(=O)N3C)c1
nt	-3.5	i	0.7	nt	1.6	nt	nt	3.1	C[C@@H]1CN([C@H](C)CO)C(=O)c2cc(NC(=O)Nc3ccc(C(F)(F)F)cc3)ccc2O[C@@H](C)CCCCO[C@H]1CN(C)S(=O)(=O)c1ccccc1
nt	2.5	i	-5.3	nt	-1.6	nt	nt	-4.9	Cc1ccc(S(=O)(=O)Nc2cccc3c2O[C@H](CN(C)C(=O)Nc2ccc(F)cc2)[C@@H](C)CN([C@@H](C)CO)C3=O)cc1
-3.4%	nt	nt	nt	nt	nt	0.9	-3.5	nt	Cc1nn(C)cc1/C=N/NC(=O)c1ccc2c(c1)OCO2
9.4%	nt	nt	nt	0.664	nt	-2.5	32.4	nt	CC(=O)Nc1nonc1NC(=O)c1ccc(C(C)(C)C)cc1
-1.6%	4.0	i	-6.3	0.63	5.4	4.8	-394.5	6.9	CCN(CC)CCCn1c2c(c(SCC(=O)Nc3ccc(OC(F)(F)F)cc3)nc1=O)CCC2
16.4%	-4.0	i	-16.9	nt	-2.1	-4.2	-0.3	4.4	C/C=C\C=C/C(=O)Nc1cccc(C2=NOC3(C2)C[C@H](C(N)=O)N(C(=O)Cc2ccc([N+](=O)[O-])cc2)C3)c1 (some centres undefined)
0.0%	4.0	i	3.0	nt	-1.6	1.4	nt	4.0	C/C(=N\NC(=O)CCc1c(C)n[nH]c1C)c1ccc([N+](=O)[O-])cc1

Remaining list, next part:
Vif TR-FRET	Ecoli rRNA inh RFP	FGF22 binding	MLL AF4-AF9 inh	E coli growth	Ecoli rRNA inh	HNF4A DNA FP	ALR inh	Ecoli rRNA inh OD600	SMILES
-0.6%	nt	nt	nt	0.72	nt	1.1	58.7	nt	COc1ccc(NCc2nnc(SCC(=O)Nc3cc(C)cc(C)c3)o2)cc1
nt	-1.7	i	9.4	nt	-0.6	nt	nt	-0.5	COc1ccc2c3c([nH]c2c1)[C@@H](CO)N(C)CC31CCN(S(=O)(=O)c2cn(C)cn2)CC1
-3.9%	-1.3	i	0.3	0.664	-6.6	-3.6	-2.1	-9.6	CCN(C(=O)COc1ccccc1)C1CCCCC1
nt	-1.0	i	-4.4	nt	0.4	nt	nt	7.3	C[C@H](CO)N1C[C@H](C)[C@H](CN(C)C(=O)CN2CCOCC2)Oc2ncc(C#CCN(C)C)cc2C1=O

Exported in markdown: 2 of the compounds above
| Compound | Vif TR-FRET | Ecoli rRNA inh RFP | FGF22 binding | MLL AF4-AF9 inh | E coli growth | Ecoli rRNA inh | HNF4A DNA FP | ALR inh | Ecoli rRNA inh OD600 |
| --- | --- | --- | --- | --- | --- | --- | --- | --- | --- |
| COc1ccc2c3c([nH]c2c1)[C@@H](CO)N(C)CC31CCN(S(=O)(=O)c2cn(C)cn2)CC1 | nt | -1.7 | i | 9.4 | nt | -0.6 | nt | nt | -0.5 |
| CCN(C(=O)COc1ccccc1)C1CCCCC1 | -3.9% | -1.3 | i | 0.3 | 0.664 | -6.6 | -3.6 | -2.1 | -9.6 |

From PubChem BioAssay
